# KCNQ2 enhance – KCNQ2 (rat) channel potentiation; O88943; CHO-K1 KCNQ2, FluxOR thallium flux fluorescence; stronger effect = higher value; B-score at 10 µM; 310,000 compounds, 0.54% hits;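 active = fluorescence ratio B-score at least 3 SD of library B-scores, with initial fluorescence B-score within 3 SD, cut at about 5.3 in these data; same plate scores as AID 2156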;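 note: B-score of peak minus minimum over baseline fluorescence ratio after K+ and Tl+ stimulus; positive B-score means potentiation of KCNQ2 with more thallium influx and brighter signal; only the inactives scoring about 0 or higher are listed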
# KCNQ2 enhance baseline – second read-out of KCNQ2 enhance, no call of its own (marks repeat the call); B-score; compound at 10 µM; measured here: initial fluorescence intensity artifact check;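 brightness before thallium and not channel activity; 0 = typical well and far values either way flag optical interference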
# Active calls of the source: *. A portion of the library (hit frequency here may not be typical).
SMILES,KCNQ2 enhance,KCNQ2 enhance baseline
COC(=O)c1ccc(C(=O)N2CCCC(N3CCN(c4ccccc4)CC3)C2)nc1 (stereo unspecified),2.93,-2.02
NS(=O)(=O)c1ccc(CCNC(=O)CNC(=O)C2CCCCC2)cc1,0.7,0.65
CN1CCCCCC1C(=O)N1CCC(N2CCC(C(=O)N3CCOCC3)CC2)CC1 (stereo unspecified),0.93,-1.76
C=CCSc1nnc(NC(=O)CSc2nc3ccccc3[nH]2)s1,1.98,-0.01
CN1CCN(c2ccc([N+](=O)[O-])c(Sc3nc4ccccc4[nH]3)c2)CC1,0.9,-0.24

# Three entries already listed, arranged by number of heavy atoms, high to low:
SMILES,KCNQ2 enhance,KCNQ2 enhance baseline
CN1CCCCCC1C(=O)N1CCC(N2CCC(C(=O)N3CCOCC3)CC2)CC1 (stereo unspecified),0.93,-1.76
CN1CCN(c2ccc([N+](=O)[O-])c(Sc3nc4ccccc4[nH]3)c2)CC1,0.9,-0.24
NS(=O)(=O)c1ccc(CCNC(=O)CNC(=O)C2CCCCC2)cc1,0.7,0.65
